# GIV Gai3 FP – inhibitors of GIV peptide binding to Galpha-i3, primary screen, biochemical, fluorescence polarization, FITC-GIV GBA peptide, rat Galphai3. Guanine nucleotide-binding protein G(i) subunit alpha-3 (Rattus norvegicus), P08753. percent of control (FP), % (no concentration beside the values). 0.42% of 210,000 active. AID 1224905, 2016. 90 min; stronger effect = lower value; scaled: aluminum fluoride 0%, vehicle 100%;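 active = replicate mean at 85% of control or lower, very high polarization wells dropped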;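 also: wells of about 15 µL received 100 nL stock; the first replicate is given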
# Target sequence (P08753 whole entry, looked up): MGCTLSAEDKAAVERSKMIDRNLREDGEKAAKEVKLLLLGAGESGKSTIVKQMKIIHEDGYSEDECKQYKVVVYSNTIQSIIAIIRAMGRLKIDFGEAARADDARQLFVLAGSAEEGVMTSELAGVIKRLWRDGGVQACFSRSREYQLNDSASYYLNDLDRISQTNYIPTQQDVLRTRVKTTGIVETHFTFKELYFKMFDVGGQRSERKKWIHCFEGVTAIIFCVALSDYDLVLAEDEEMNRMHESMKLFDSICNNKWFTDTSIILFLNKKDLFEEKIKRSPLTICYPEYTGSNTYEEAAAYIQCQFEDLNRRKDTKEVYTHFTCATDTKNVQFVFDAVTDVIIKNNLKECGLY
# Numbers without * were called inactive. An excerpt; the hit share may differ from the screen's.
SMILES,GIV Gai3 FP
Cc1ccc(-c2nnc(OCc3ccccc3)c3ccccc23)cc1S(=O)(=O)N(C)C,103.2
O=S(=O)(NCCO)c1ccc2c(c1)C(=NO)c1cc(S(=O)(=O)NCCO)ccc1-2,106.7
Fc1cccc(CN2CCC3(CC2)N=C(C2CC2)NO3)c1,113.9
Cc1cc(Cl)ccc1NS(=O)(=O)c1ccc2c(c1)NC(=O)C(C(=O)N1CCCC1)S2 (configuration not stated),106.9
Cc1cccc(Cl)c1NC(=O)CCc1nc(CSc2nc3ccccc3s2)no1,105.7
Cc1ccc(-n2ccc(=O)c(-c3nc(-c4ccc(F)c(Br)c4)no3)n2)cc1C,106.2
COc1ccccc1OCCOc1ccc(-c2nc3sc4c(c3c(=O)[nH]2)CCCC4)cc1OC,101.3
O=C(NCc1ccco1)c1ccc(N2CC3CC(C2)c2cccc(=O)n2C3)c(NS(=O)(=O)c2ccc(Cl)cc2)c1 (configuration not stated),107.5
Cc1cccc(CNC(=O)COc2ccc(-c3cnc4ccccc4n3)cc2)c1,98.0
Cc1ccc(NC(=O)c2ccc(=O)n(CC(=O)Nc3cc(C)ccc3C)n2)cc1,100.7
CCCCN1C(=O)N(C)C2C1N(C)C(=O)N2CCCC (configuration not stated),102.5
CC(=O)C1=NN(c2ccc(C)cc2)C2(S1)c1ccccc1C(c1ccc(C(C)C)cc1)=NN2c1ccccc1 (configuration not stated),111.8
Cc1ccc(-c2ccc(OCCNS(=O)(=O)c3ccc4c(c3)OCCO4)nn2)cc1,102.2
O=C(COc1ccc(Cl)cc1-n1cnnc1)Nc1ccccc1,105.1
Cc1ccc(Cc2nc(CCNS(=O)(=O)c3cc(F)ccc3F)n[nH]2)cc1,103.5
CCOC(=O)c1sc2nc(SCC(=O)NCc3ccco3)n(Cc3ccccc3OC)c(=O)c2c1C,106.7
COC(=O)c1c(C)oc2ccc(NS(=O)(=O)c3cc(C)ccc3C)cc12,105.9
CCNC(=O)C1CCCN(S(=O)(=O)c2cc(-c3noc(C4CCCC4)n3)cs2)C1 (configuration not stated),103.6
C=CCOc1ccc(C2/C(=C(\O)c3ccccc3)C(=O)C(=O)N2c2nnc(C)s2)cc1 (configuration not stated),110.9
Cc1ccc(N2CC(O)(c3ccc(F)cc3)[N+]3=C2SCCC3)cc1 (configuration not stated),106.2
CCc1cc(Sc2ccc(NC(C)=O)cc2)n2ncnc2n1,100.8
CCOC(=O)c1c(S(=O)(=O)N2CCC(C(=O)Nc3cc(C)ccn3)CC2)c(C)n(C)c1C,104.0
O=C(NC1CC(=O)N(c2ccc3c(c2)OCCO3)C1)c1ccc2c(c1)OCO2 (configuration not stated),99.4
Cn1c(SCC(=O)NCCCc2ccccc2)nc2cc(-c3ccccc3)sc2c1=O,100.7
COc1ccc(C(C)=O)cc1CSc1nc2ccccc2c(=O)n1CCCC(=O)NCCCN1CCCC1=O,110.0

# Exported field by field: four of the compounds above
CCOC(=O)c1c(S(=O)(=O)N2CCC(C(=O)Nc3cc(C)ccn3)CC2)c(C)n(C)c1C
  GIV Gai3 FP: 104.0
CCc1cc(Sc2ccc(NC(C)=O)cc2)n2ncnc2n1
  GIV Gai3 FP: 100.8
C=CCOc1ccc(C2/C(=C(\O)c3ccccc3)C(=O)C(=O)N2c2nnc(C)s2)cc1 (configuration not stated)
  GIV Gai3 FP: 110.9
Cn1c(SCC(=O)NCCCc2ccccc2)nc2cc(-c3ccccc3)sc2c1=O
  GIV Gai3 FP: 100.7

# Following part
SMILES,GIV Gai3 FP
COc1ccc(OCC(=O)N(C)CCc2noc(C(=O)NCc3ccccc3)n2)cc1,103.9
CC1CCN(S(=O)(=O)c2cn(Cc3noc(-c4cc5cc(Cl)ccc5[nH]4)n3)cn2)CC1,104.8
Cc1ccc(-c2cnc(Nc3cccc(C(=O)NC4CCCc5ccccc54)c3)nc2)cc1 (configuration not stated),103.1
COc1ccccc1Nc1nc(-c2ccc([N+](=O)[O-])cc2)nc2ccccc12,104.5
CC(=O)Nc1cc(Cl)ccc1OCc1cc(=O)n2cc(C)sc2n1,108.3
COC(=O)c1ccccc1NC(=O)c1cccc(CSc2nnc(C)s2)c1,106.6
CC(c1nnc(SCC(=O)Nc2cccc(Br)c2)n1C)N1C(=O)COc2ccccc21 (configuration not stated),103.8
CCC(C)Nc1ccc2nncn2n1 (configuration not stated),103.5
Cc1cccc(NC(=O)CCc2nc(CSc3n[nH]c(-c4ccccc4)n3)no2)c1C,106.9
COC(=O)CN1C(=O)C2(C(C#N)=C(N)Oc3c2c(=O)oc2ccccc32)c2ccccc21 (configuration not stated),109.5
CC(=O)Oc1ccc(/C=C2\Oc3ccc4c(C)cc(=O)oc4c3C2=O)cc1,103.9
Cc1sc(-c2cc(C(F)(F)F)on2)cc1S(=O)(=O)Nc1ccc(Br)cc1F,96.8
CCOP(=O)(OCC)c1nc(-c2ccc(Cl)cc2)oc1NC,111.6
CCC1=NS(=O)(=O)c2cccnc2N1c1ccc(Br)c(C)c1,102.6
O=C(CSc1ccc(S(=O)(=O)c2ccccc2)nn1)Nc1ccc2c(c1)OCO2,103.9
O=C1/C(=C/c2ccc(Cl)cc2)C=C(c2ccccc2)N1c1ccccc1Cl,121.1
COc1ccc(CN2CCCC2c2cc(C(C)C)on2)cc1COCC(F)(F)F (configuration not stated),109.4
N#CC1=C(N)Oc2n[nH]c(-c3ccc(Br)cc3)c2C1c1ccc(N2CCOCC2)c([N+](=O)[O-])c1 (configuration not stated),116.4
COC(=O)C1=NNC2C(=O)N(c3ccc(C)cc3)C(=O)C12 (configuration not stated),113.5
COc1ccc(N2C(=O)CSC23C(=O)Nc2ccccc23)cc1OC (configuration not stated),123.2
Cc1ccc(Cc2nc(CCNC(=O)NCC(C)C)n[nH]2)cc1,106.5
COC(=O)c1c(-c2ccccc2)noc1NC1CCCc2ccccc21 (configuration not stated),105.8
CCOC(=O)C1=C(C)N=c2s/c(=C\c3cc(OC)c(OC)c(OC)c3)c(=O)n2C1c1ccc(OC)cc1 (configuration not stated),112.9
Cc1ccc(-c2nc(C3CCN(S(=O)(=O)c4cccc(C)c4)CC3)no2)cc1,102.7
CCOc1cccc(C2Nc3ccc(F)cc3[C@H]3OCCC[C@@H]23)c1OC (some centres not stated),100.5
# More entries
SMILES,GIV Gai3 FP
O=C(Nc1ccccc1)/C(=C/c1cccc([N+](=O)[O-])c1)NC(=O)c1ccccc1Br,116.8
Cc1ccc(-n2ccc(=O)c(-c3nc(-c4ccncc4)no3)n2)cc1,101.7
c1nc2c(c(N3CCCCCC3)n1)CCC2,103.6
CCOc1ccccc1NC(=O)N1CCCC(C)(C(=O)NCc2cccc(OC)c2)C1 (configuration not stated),103.3
O=C(NCCOc1cccc2cccnc12)c1cc(C(F)(F)F)cc(C(F)(F)F)c1,101.8
CCOc1ccc(C2C(N3C(=O)c4ccccc4C3=O)C(=O)N2c2ccc(Br)cc2)cc1 (configuration not stated),111.4
Cc1oc2ccc(NS(=O)(=O)c3ccc(Br)cc3)cc2c1C(=O)OC(C)C,97.2
CCc1c(C2CCN(C(=O)Cc3cccs3)CC2)noc1N,115.8
CCNc1cc(C)nc(N2CCN(S(=O)(=O)c3ccc(C)cc3C)CC2)n1,109.5
Cc1nnc(SCC(=O)Nc2ccc3nc(SCC(=O)NCC4CCCO4)sc3c2)s1 (configuration not stated),119.8
O=c1n(Cc2ccc(F)cc2)nc2c(S(=O)(=O)N3CCCCC3)cccn12,106.4
N#C/C(=C(/O)c1cc(=O)c2ccccc2o1)c1nc2ccccc2s1,104.5
COc1ccc(C2C3=C(CC(C)(C)CC3=O)Nc3[nH]c(=S)[nH]c(=O)c32)cc1 (configuration not stated),111.4
O=P(Cc1cc[n+]([O-])cc1)(c1ccccc1)c1ccccc1,106.0
CCOC(=O)C1=C(C)N=c2s/c(=C\c3ccc4c(c3)OCO4)c(=O)n2C1c1ccc(OC)c(Br)c1 (configuration not stated),101.9
CCOC(=O)c1c(-c2cc(Br)c(OC)c(Br)c2)oc2ccc(O)cc12,105.6
CCOC(=O)c1ccc(Cn2c3cc([N+](=O)[O-])ccc3c3nn4cc(-c5ccc(Br)cc5)nc4nc32)o1,134.3
Cc1nc(C)n2cc[nH]c(=O)c12,101.4
CCOC(CNC(=O)c1ccc2c(c1)nc(C)n2-c1ccc(OCc2ccccc2)cc1)OCC,104.0
CN(C)S(=O)(=O)N1CCCC(c2cc(-c3ccccc3)n[nH]2)C1 (configuration not stated),97.0
O=C(Nc1cccc2c1C(=O)c1ccccc1C2=O)c1ccc(C(=O)Nc2cccc3c2C(=O)c2ccccc2C3=O)cc1,109.8
COc1cc(OC)cc(C(=O)Nc2cc(C(=O)NCc3cccs3)ccc2N2CC3CC(C2)c2cccc(=O)n2C3)c1 (configuration not stated),104.9
O=C(NCCN1CCOCC1)c1ccc2c(c1)N(Cc1ccccc1Cl)C(=O)c1ccccc1S2,109.3
CCCCn1nc2c(S(=O)(=O)N3CCc4ccccc4C3)cccn2c1=O,104.9
Cc1cccc(NC(=O)C2Oc3ccccc3NC2=O)c1C (configuration not stated),99.7
# Next section:
SMILES,GIV Gai3 FP
Cc1nc(N2CCOCC2)c2c(C)c(C(=O)Nc3c(C)cc(Br)cc3C)sc2n1,97.5
CCOC(=O)c1[nH]c(C)c(CCC(=O)Nc2nnc(CC)s2)c1C,109.9
Nc1c(Cl)cc(C(=O)NC2CCS(=O)(=O)C2)cc1Cl (configuration not stated),102.2
COc1ccccc1-n1c(N)c(C(=O)NC2CCCCC2)sc1=S,110.6
COc1ccc(C2=NN3C(C2)c2cccc(OC)c2OC3c2ccc(SC)cc2)cc1 (configuration not stated),105.0
COc1ccc2c(c1)c(=O)c1ccccc1n2CC(=O)Nc1ccccc1C(F)(F)F,108.4
CCC(=O)N1CCc2cc(-c3ccc(C(=O)NCc4ccccn4)cc3)ccc21,97.6
Cc1nn(-c2nc3ccccc3[nH]2)c2c1C(c1cnn(C)c1C)CC(=O)N2 (configuration not stated),106.6
COc1ccccc1NC(=O)CSc1nc(N2CCc3ccccc3C2)nc2ccccc12,108.3
CCCN1CCN(c2ncnc3sc(C(=O)Nc4cc(C)ccc4OC)c(C)c23)CC1,101.8
Cc1ccc(C2=Nc3ccccc3N=C(c3cccc(F)c3)C2)c(O)c1,110.7
Cc1ccc(COCc2ccc3c(c2)CN(C(=O)Nc2ccc4c(c2)OCCO4)CCO3)cc1,100.6
COc1ccc(Cn2nc3c(S(=O)(=O)N4CCCCCC4)cccn3c2=O)cc1,106.2
CCOC(=O)c1ccc(N2N=C(C(F)(F)F)/C(=C/c3ccc4c(c3)OCO4)C2=O)cc1,106.0
O=C(COC(=O)CSc1nc(-c2ccccc2)cc(-c2ccccc2)n1)NCc1ccccc1,104.3
CCC(Sc1nc(NCCOC)c2ccccc2n1)C(=O)NCCCOC (configuration not stated),110.5
COc1cc(/C=c2\sc3nc4ccccc4n3c2=O)cc(Br)c1OCC#N,122.1
CCc1ccc(S(=O)(=O)N2CCC3(CC2)NCCN=C3NCc2ccc(F)cc2)cc1,104.2
COc1ccc(OC)c(S(=O)(=O)N2CSC[C@@H]2C(=O)NCCc2csc(C)n2)c1,99.8
CCOc1ccc(C2=NN3C(C2)c2cccc(OC)c2OC3c2cccc(OC)c2)cc1 (configuration not stated),107.6
Cn1nc(-c2nnc(-c3ccc(F)cc3)o2)c2c1CCN(S(=O)(=O)c1ccc(F)cc1)C2,99.2
Cc1nnc(-c2coc(S(=O)(=O)N(C)C3CCCCC3)c2)o1,104.8
O=C(O)c1cccnc1SCc1cccc(Br)c1,108.2
O=C(NCC1CCCO1)C1CCN(S(=O)(=O)c2cc(-c3noc(C4CCC4)n3)cs2)CC1 (configuration not stated),111.0
Cc1ccc(C)c(NS(=O)(=O)c2cc(-c3nc(C)c(C)s3)sc2C)c1,98.8
# (more compounds)
SMILES,GIV Gai3 FP
O=C(CSc1nc2cc(C(=O)NCc3ccco3)ccc2c(=O)n1Cc1ccco1)NCc1ccco1,110.2
O=C(NCC1CCCO1)N1CCCn2nc(-c3cccc(Cl)c3)cc2C1 (configuration not stated),98.5
CCOc1ccc(-c2[nH]ncc2CN2CCCC2c2c(C)noc2C)cc1 (configuration not stated),105.5
Cc1cc(Br)ccc1N1C(=O)/C(=C/c2ccc(-c3ccc(Br)cc3)o2)C=C1c1ccccc1,128.9
CCCS(=O)(=O)c1nc2ccc(NS(=O)(=O)c3ccc(C(C)(C)C)cc3)cc2s1,107.7
Cc1ccc2c(c1)C(c1ccccc1)=Nc1ccc(C)cc1C(c1ccccc1)=N2,102.1
COc1ccc(OC)c(-c2nc(-c3ccccc3)c(-c3ccccc3)[nH]2)c1,104.8
Cc1ccc(C(=O)Nc2ccc(S(=O)(=O)N3CCCCC3c3cccnc3)cc2)cc1C (configuration not stated),106.0
COc1cc(-c2ccno2)ccc1S(=O)(=O)NC1CCN(Cc2ccccc2)CC1,121.5
CCOC(=O)Nc1ccc2c(c1)N(C(=O)CN(CC)CC)c1ccccc1CC2,109.6
CN(C)c1ccc(C(=O)N2CCC(COc3ccc(C(=O)N4CCCCC4)cc3)CC2)cc1,104.9
Cc1cc(C2CCCN2S(=O)(=O)c2c(C)noc2C)on1 (configuration not stated),93.7

# Exported with values ahead of the structure: 2 of the compounds above.
GIV Gai3 FP | mol
121.5 | COc1cc(-c2ccno2)ccc1S(=O)(=O)NC1CCN(Cc2ccccc2)CC1
98.5 | O=C(NCC1CCCO1)N1CCCn2nc(-c3cccc(Cl)c3)cc2C1 (configuration not stated)

# Reformatted with each value named: two of the compounds above.
> O=C(NCC1CCCO1)N1CCCn2nc(-c3cccc(Cl)c3)cc2C1 (configuration not stated)
  GIV Gai3 FP = 98.5
> CCOC(=O)Nc1ccc2c(c1)N(C(=O)CN(CC)CC)c1ccccc1CC2
  GIV Gai3 FP = 109.6
